Screens deposited in PubChem by several laboratories.
YopH PTP inh: inhibitors of Yersinia enterocolitica YopH tyrosine phosphatase. AID 898. inhibition, %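 (about 10 µM by stock and volumes)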. fluorescence Ex485/Em525. actives 0.16% (n = 140,000);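 active = inhibition of 50% or more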;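 also: controls were vehicle for no effect and minimum signal wells for full effect; inactives centre near -20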
Mtb growth: M. tuberculosis H37Rv growth inhibitors, H37Rv strain (AID 1626); M. tuberculosis H37Rv growth inhibition; higher % means a stronger effect; inhibition, % at 10 µM; hits with a dose series show IC50 in µM; actives 0.95% (n = 220,000);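 active = confirmed in a dose series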;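 also: bacteria incubated seven days before Alamar blue readout; 0% = bacteria only wells and 100% = bacteria with antibiotic wells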
Arbovirus anti: antivirals against arbovirus infection; arbovirus infection cell-based antiviral screen; inhibition, % at 10 µM; actives 0.37% (n = 200,000); AID 1251;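 active = inhibition from about 30%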;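 also: bluetongue infection of BSR cells; cell survival read as ATP light after 72 h; 0% = infected wells without compound and 100% = uninfected wells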
RecA splice inh: blocks M. tuberculosis RecA intein splicing; inhibition, %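 (about 9 µM by stock and volumes)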; P9WHJ3; actives 0.75% (n = 290,000); AID 2221; cell-free RecA intein splicing, fluorescence; in the data active = inhibition above about 30%;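 also: 0% = vehicle wells and 100% = reference inhibitor control wells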
Target sequence (P9WHJ3 whole entry, looked up, canonical isoform): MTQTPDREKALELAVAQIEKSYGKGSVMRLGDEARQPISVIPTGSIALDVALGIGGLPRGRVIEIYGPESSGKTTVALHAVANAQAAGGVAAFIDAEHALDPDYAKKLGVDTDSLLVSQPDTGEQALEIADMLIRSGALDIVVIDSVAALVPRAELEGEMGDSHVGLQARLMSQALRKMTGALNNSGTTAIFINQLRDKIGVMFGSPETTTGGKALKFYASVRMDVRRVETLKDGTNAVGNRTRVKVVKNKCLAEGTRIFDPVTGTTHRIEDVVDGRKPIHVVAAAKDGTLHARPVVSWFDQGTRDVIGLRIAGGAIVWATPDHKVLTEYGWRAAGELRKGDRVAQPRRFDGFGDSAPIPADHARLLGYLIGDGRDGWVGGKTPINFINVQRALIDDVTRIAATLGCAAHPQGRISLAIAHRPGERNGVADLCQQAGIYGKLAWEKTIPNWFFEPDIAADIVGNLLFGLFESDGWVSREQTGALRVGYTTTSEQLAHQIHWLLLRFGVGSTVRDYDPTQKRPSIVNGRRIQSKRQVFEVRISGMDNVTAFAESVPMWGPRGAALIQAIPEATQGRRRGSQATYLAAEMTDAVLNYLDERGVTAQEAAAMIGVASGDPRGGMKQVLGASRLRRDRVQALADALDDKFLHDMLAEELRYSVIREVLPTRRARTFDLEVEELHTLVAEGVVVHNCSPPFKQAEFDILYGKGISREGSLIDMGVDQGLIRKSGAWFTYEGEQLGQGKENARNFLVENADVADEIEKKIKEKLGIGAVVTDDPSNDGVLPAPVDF
Mtb betalactam: beta-lactam sensitization of Mtb H37Rv | actives 0.27% (n = 330,000) | inhibition, % at 25 µM | M. tuberculosis H37Rv growth with meropenem, percent inhibition; hits of this screen are not shown here;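 active = about 74% or more and at least 40 points above the plate without the antibiotic, then above 30% in a dose series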;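 also: growth measured after seven days incubation then overnight dye step; 0% = bacteria only wells and 100% = bacteria with antibiotic; twin plates without the antibiotic show which effects depend on it; some results filed as inactive read as strong as hits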
Arbovirus anti repeat: further read-out of Arbovirus anti, marked with its call; inhibition, %; measured here: 10K subset replicate screen; many hits read low in the repeat;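 first of two repeat runs on a subset; 0% = infected and 100% = uninfected wells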
Numbers without * were called inactive; . = not tested or not shown. Some of the compounds tested; count on the stated rates, not on these rows.

SMILES	YopH PTP inh	Mtb growth	Arbovirus anti	RecA splice inh	Mtb betalactam	others
COc1ccc(-c2nc(CS(=O)CC(=O)NCc3ccc(F)cc3)c(C)o2)cc1 (stereo not drawn)	.	.	.	1.2	6
Cc1cc(C)cc(Oc2nn[nH]n2)c1	-5	1%	11	-0.6	34
CCN(CC)C(=O)COc1coc(CN2CCN(c3ccccc3F)CC2)cc1=O	.	.	.	-0.8	0
CC(=O)c1nn(-c2ccc(C(F)(F)F)cc2)c(=O)[nH]c1=O	.	.	.	-0.2	7
CCOc1ncccc1C(=O)NNC(=O)c1cccc(S(=O)(=O)Nc2ccc(OC)cc2)c1	.	.	.	0.4	-3
CC(=O)NC(Cc1c[nH]c2ccccc12)C(=O)N1CCc2ccccc2C1 (stereo not drawn)	6	0%	9	-2.1	-6
Cc1ccc(NC(=O)CO/N=C/c2ccccc2C)c(C)c1	.	10%	7	2.2	2
Fc1ccc(Nc2ccc(-c3ccc(F)cc3)nn2)cc1	.	-13%	-6	0.4	-3
CCOC(=O)CSc1nc(N)nc(C)c1Cl	.	-8%	7	0.3	-17
CSc1ccccc1NC(=O)Cn1c([N+](=O)[O-])cnc1C	.	.	.	-2.0	4
CC(C)C[C@H](NC(=O)[C@@H]1O[C@H]1C(=O)O)C(=O)NCCCCN=C(N)N	-56	-5%	-2	-4.5	6
COc1cc(Cl)c(C)cc1NC(=O)CSc1ccccc1	-10	10%	3	11	35
CC(=O)N1CCN(Cc2nc3cc(Cl)ccc3c(=O)[nH]2)CC1	.	-4%	5	-2.3	-5
Cc1nc2sc(C(c3cccc(F)c3)N3CCCC(C)C3)c(O)n2n1 (stereo not drawn)	-45	-2%	4	-12	-2
COc1cc(C(c2c(C)[nH]n(-c3ccccc3)c2=O)c2c(C)[nH]n(-c3ccccc3)c2=O)cc(OC)c1OC	19	.	-10	98*	6
COc1ccc(Nc2nc(N)nc(CSc3nnc(N)s3)n2)cc1	0	-1%	-1	-3.4	4
Oc1ccc(NCc2cccc(OCc3ccc(F)cc3)c2)cc1	.	52%	-6	0.3	69
O=C(Nc1cccc(Cl)c1)c1cccc(N2C(=O)C3CC=CCC3C2=O)c1 (stereo not drawn)	.	.	.	-1.1	7
CN(C(=S)NC(=O)/C=C/c1ccc(F)cc1)C1CCCCC1	-21	2%	0	3.3	3
Nc1ncc(Br)cc1S(=O)(=O)NCCC(=O)N1CCN(c2ccccn2)CC1	-22	6%	17	1.6	-7

3 compounds already listed, sorted by SMILES length, lowest first:
SMILES	YopH PTP inh	Mtb growth	Arbovirus anti	RecA splice inh	Mtb betalactam	others
Cc1ccc(NC(=O)CO/N=C/c2ccccc2C)c(C)c1	.	10%	7	2.2	2
CC(=O)NC(Cc1c[nH]c2ccccc12)C(=O)N1CCc2ccccc2C1 (stereo not drawn)	6	0%	9	-2.1	-6
O=C(Nc1cccc(Cl)c1)c1cccc(N2C(=O)C3CC=CCC3C2=O)c1 (stereo not drawn)	.	.	.	-1.1	7

The list goes on.
SMILES	YopH PTP inh	Mtb growth	Arbovirus anti	RecA splice inh	Mtb betalactam	others
N#Cc1ccccc1Cn1cc(C(=O)C2CC2)c2ccccc21	-27	-4%	3	1.8	4
CCc1noc(C)c1C(=O)Nc1ccc(C(F)(F)F)cc1	.	.	.	-2.1	-19
COc1cccc(/C=C2\SC(=S)N(C(C(=O)O)c3ccccc3)C2=O)c1OC (stereo not drawn)	.	-6%	.	1.1	3
CN(Cc1ccco1)C(=O)C1CCC(=O)N(CCc2cccc(F)c2)C1 (stereo not drawn)	.	.	.	-0.1	-8
Cn1nc(OC(=O)Nc2ccccc2)cc1C(F)(F)F	-39	-2%	11	-2.6	8
O=C(CC(O)(c1ccccc1)C(F)(F)C(F)F)c1cccs1 (stereo not drawn)	-21	-5%	-4	2.3	-2
CCOc1ccc(S(=O)(=O)n2ccnc2C)cc1	.	.	.	-0.1	4
CCn1c(SCC(=O)Nc2cccc(F)c2)nc2c(c1=O)SC(C)C2 (stereo not drawn)	-12	6%	4	-0.3	-12	Arbovirus anti repeat=-1
Cc1ccc(C(=O)NC(C(=O)Nc2ccccc2)c2ccccc2)cc1 (stereo not drawn)	.	.	.	0.2	0
CCCn1nnnc1SCC(=O)NNC(=O)C1CCCCC1	-34	.	0	.	.
CCS(=O)(=O)N1CCC(C(=O)NCc2cccc(OC)c2)CC1	-55	.	6	1.1	-3
Cc1cccnc1NC(=O)CCNC(=O)c1ccccc1Cl	.	.	.	0.6	-6
CCOC(=O)N1CCN(C(=O)C(NC(=O)c2ccc(CC)cc2)C(C)C)CC1 (stereo not drawn)	-2	-14%	5	0.8	4
O=C(O)COc1ccc(/C=C/c2ccc3cccc([N+](=O)[O-])c3n2)cc1	-40	7%	8	-99	92
Cn1cc([N+](=O)[O-])c(C(=O)N(Cc2ccccc2)Cc2ccccc2)n1	-26	0%	0	-1.3	6
Cc1ccc(SCC(=O)Nc2ccc(N3CCOCC3)cc2)c(C)c1	.	0%	-3	.	-7
CCOC(=O)c1c(C)[nH]c(C(=O)COC(=O)CSC)c1C	14	-15%	9	2.4	2
COc1ccc(OC)c(NC(=O)C23CCC(C)(C(=O)C2)C3(C)C)c1 (stereo not drawn)	32	-5%	5	-0.1	-9
COc1ccccc1C1=NOC(C)(c2sc(-c3ccc(Cl)cc3)nc2C)C1 (stereo not drawn)	.	3%	.	6.3	26
COc1cccc(C2N(Cc3ccccc3)C(=O)C2(F)F)c1OC (stereo not drawn)	.	.	.	5.9	54

Quoted at random: 7 compounds from above, in no set order.
SMILES	YopH PTP inh	Mtb growth	Arbovirus anti	RecA splice inh	Mtb betalactam	others
COc1cccc(/C=C2\SC(=S)N(C(C(=O)O)c3ccccc3)C2=O)c1OC (stereo not drawn)	.	-6%	.	1.1	3
O=C(CC(O)(c1ccccc1)C(F)(F)C(F)F)c1cccs1 (stereo not drawn)	-21	-5%	-4	2.3	-2
N#Cc1ccccc1Cn1cc(C(=O)C2CC2)c2ccccc21	-27	-4%	3	1.8	4
COc1ccccc1C1=NOC(C)(c2sc(-c3ccc(Cl)cc3)nc2C)C1 (stereo not drawn)	.	3%	.	6.3	26
O=C(O)COc1ccc(/C=C/c2ccc3cccc([N+](=O)[O-])c3n2)cc1	-40	7%	8	-99	92
CCOC(=O)N1CCN(C(=O)C(NC(=O)c2ccc(CC)cc2)C(C)C)CC1 (stereo not drawn)	-2	-14%	5	0.8	4
Cn1nc(OC(=O)Nc2ccccc2)cc1C(F)(F)F	-39	-2%	11	-2.6	8

Continuation:
SMILES	YopH PTP inh	Mtb growth	Arbovirus anti	RecA splice inh	Mtb betalactam	others
COc1ccc(-n2c(-c3ccc(C)cc3)nc3ccccc3c2=O)cc1	.	8%	.	-2.8	12
COc1ccc(/C(O)=C2\C(=O)C(=O)N(CCN(C)C)C2c2cccc(OC)c2OC)cc1 (stereo not drawn)	-17	-5%	-1	-0.5	-8
Cc1ccc2[nH]c3c(=O)n(CCC4=CCCCC4)cnc3c2c1	-37	-3%	2	-2.4	8
CC1CCCN(C(=O)C2CC(=O)N(c3ccc(Cl)cc3)C2)C1 (stereo not drawn)	.	.	.	0.1	2
COc1ccc(CN(C2CCCCC2C)S(=O)(=O)c2ccc(S(=O)(=O)N(C)C)cc2)cc1OC (stereo not drawn)	-19	6%	8	7.3	0
C=CCNC(=O)c1ccc(Cn2c(=S)[nH]c3cc4c(cc3c2=O)OCO4)cc1	-4	-6%	6	-1.5	1
COc1ccc(C(=O)Nc2c3c(nn2-c2cccc(Cl)c2)CS(=O)C3)cc1 (stereo not drawn)	-4	3%	4	-1.8	1
Cc1ccc(C)c(NC(=O)C(OC(=O)c2cnc(C)cn2)c2ccccc2)c1 (stereo not drawn)	.	.	.	1.9	4
COc1ccc(CCNC(=O)c2cc(-c3ccco3)on2)cc1OC	.	7%	-3	0.9	11
O=C(Nc1nc2c(F)cccc2s1)C1CC1	.	.	.	-2.9	-4
Cc1ccc(C2/C(=C(\O)c3cnn(-c4ccccc4)c3C)C(=O)C(=O)N2CCN(C)C)o1 (stereo not drawn)	-29	-6%	-1	-3.8	3
COc1cc(/C=C/C(=O)OCC(=O)Nc2ccc3c(c2)OCCO3)ccc1OCC#N	-17	2%	-17	-2.3	4
COC(=O)c1ccc(C2/C(=C(\O)c3ccc4c(c3)OCCO4)C(=O)C(=O)N2CCCN2CCOCC2)cc1 (stereo not drawn)	.	.	.	-2.7	-13
COc1cc(-c2cc(-c3ccc(F)cc3)nc(N)c2C#N)ccc1O	.	8%	-4	0.8	4
COc1ccc(CCN(C)CCC(=O)Nc2c(C)cc(C)cc2C)cc1OC	8	-10%	6	-1.2	-4
COC(=O)c1c(-c2ccsc2)oc2ccc(-c3cc(OC)c(OC)c(OC)c3)cc12	.	65%	.	0.2	98
CCOC(=O)N1CCC(N2CCCC(CO)(Cc3cccc(OC)c3)C2)CC1 (stereo not drawn)	.	-2%	-6	0.5	1
COc1cc(C(=O)Nc2ccc3ccccc3c2)cc(OC)c1OC	.	.	.	0.3	-2
Cc1cc(C(C#N)c2ccccc2F)n2ncnc2n1 (stereo not drawn)	.	-6%	22	-7.1	-4
CCN(CC)C(=O)N1c2ccccc2Sc2ccccc21	.	.	.	9.3	2
CCN(CC)CCCN(Cc1cc2cc3c(cc2[nH]c1=O)OCO3)C(=S)NCCCOC	.	.	.	-2.1	0
O=C(Nc1ccccc1)c1cccc(N2C(=O)C3C4C=CC(C4)C3C2=O)c1 (stereo not drawn)	.	.	.	-1.5	-2
CC(C)NS(=O)(=O)c1ccc(CCC(=O)Nc2cc(Cl)ccc2Oc2ccccc2)cc1	9	-1%	-12	9.9	1
Cc1cccc(N=C2NC(=O)c3cc([N+](=O)[O-])ccc32)c1	.	3%	0	-4.0	0
O=C(Nc1cccc([N+](=O)[O-])c1)C1CC(=O)N(Cc2ccccc2)C1 (stereo not drawn)	.	4%	-1	-4.3	-7
Cc1ccnn1CCSCC(=O)O	-19	4%	1	1.7	2
CC(C)c1cc(CN2CCN(CCC#N)CC2)cc(C(C)C)c1O	-13	-7%	4	-0.2	0
CS(=O)(=O)Nc1ccc(C(=O)N2CCCC2)cc1	-53	-6%	0	-1.0	-9
O=C(NC(=S)N(CCO)Cc1ccccc1)c1cc(Br)ccc1Cl	.	-2%	2	2.9	-1
Cc1c(C(=O)N2CCOCC2)sc2nc(-c3ccccc3)cn12	-6	.	15	-0.4	-10
CCOC(=O)c1c(C)noc1CP(=O)(c1ccccc1)c1ccccc1	0	-1%	0	-1.0	5
CCCCCCN(C(=O)CCCCCN1C(=O)NC(c2ccc(-c3ccccc3)cc2)C(C(=O)OCc2ccccc2)=C1C)C(C(=O)NCCCC)c1ccccc1 (stereo not drawn)	.	15%	.	0.3	.
CN(CC(=O)N1CCCCCC1)S(=O)(=O)c1ccc(F)cc1	.	0%	7	1.2	-1
COC(=O)c1cccc(CSc2nnc(C)s2)c1	-32	-4%	10	-0.9	-4
CCCCCc1ccc(-c2ccc(OCC)cc2)nc1	.	0%	-8	5.5	32
C=CCn1c(C)cc(C(=O)CSc2nnc(NCc3ccccc3)s2)c1C	-36	.	-9	6.6	6
CCOC(=O)C1CCN(C(=O)COC(=O)c2ccc(Br)o2)CC1	-44	3%	7	-0.6	-5
COc1cccc(C(C)NC(=O)Nc2cccc(C(F)(F)F)c2)c1 (stereo not drawn)	-13	5%	-22	5.6	72
COc1cc2cc(CN(Cc3ccc4c(c3)OCO4)C(=O)c3ccco3)c(=O)[nH]c2cc1OC	-15	-8%	.	-0.4	-12
COC(=O)c1ccc([C@H](NC(=O)c2ccco2)[C@]2(C)C[C@H]2C2CCCCC2)cc1	.	-5%	.	10	36
Cc1cccc(-c2cc3nc4c(c(N5CCCC(O)C5)n3n2)CCC4)c1 (stereo not drawn)	-25	8%	-20	-0.4	8
Cn1c(=O)oc2cc(S(=O)(=O)N3CCC(C(=O)N4CCN(c5ccc(F)cc5)CC4)CC3)ccc21	.	.	.	-1.0	-3
COCCN(C(=O)CCCC(=O)Nc1ccccn1)C(C(=O)NC1CCCCC1)c1ccc(C)cc1 (stereo not drawn)	-35	-1%	1	-0.3	0
COc1ccccc1CNC(=O)COC(=O)C1CCN(S(=O)(=O)c2ccc(C)c(C)c2)CC1	.	.	.	4.4	2
Cc1ccc(N=Nc2c(O)ccc3n[nH]nc23)cc1	.	1%	.	-3.8	82
CCOc1ccccc1N(CC(=O)NC1CCCCC1)S(C)(=O)=O	-17	-5%	-7	-1.5	-1
CS(=O)(=O)c1ccc(Cl)c(NC(=O)COc2ccc3c(c2)CCC3)c1	.	.	.	-1.8	-12
O=C(NCc1csc2ccc(Cl)cc12)Nc1cccc2ccccc12	.	-18%	.	0.6	-6
CC1Sc2ccc(S(=O)(=O)CCC(=O)N3CCN(c4ccccc4F)CC3)cc2NC1=O (stereo not drawn)	.	.	.	-0.2	8
O=C(O)C(NS(=O)(=O)c1cccc2nsnc12)c1ccccc1 (stereo not drawn)	.	-1%	.	2.3	-2
C/C(=N\Nc1nc(N2CCCCC2)nc(N2CCOCC2)n1)c1ccccc1O	.	10%	-18	1.3	6
O=C1CCc2ccccc2N1	.	-9%	.	-1.0	5
